YopH inh: YopH tyrosine phosphatase inhibitors, primary screen, biochemical, fluorescence Ex485/Em525 | YopH tyrosine phosphatase [Yersinia enterocolitica] | inhibition, %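 (about 10 µM by stock and volumes)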 | 0.16% of 140,000 active | AID 898, 2007;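 active = inhibition of 50% or more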;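 also: controls were vehicle for no effect and minimum signal wells for full effect; inactives centre near -20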
Arbovirus anti: antivirals against arbovirus infection, primary screen, cell-based, full library, 10K replicate subset; 0.37% of 200,000 active; inhibition, % at 10 µM; arbovirus infection cell-based antiviral screen;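 active = inhibition from about 30%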;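 also: bluetongue infection of BSR cells; cell survival read as ATP light after 72 h; 0% = infected wells without compound and 100% = uninfected wells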
RecA intein inh: Mtb RecA intein splicing inhibitors, primary screen, biochemical, fluorescence, HTS. Protein RecA (Mycobacterium tuberculosis (strain ATCC 25618 / H37Rv)), P9WHJ3. cell-free RecA intein splicing. inhibition, %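 (about 9 µM by stock and volumes)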. 0.75% of 290,000 active; in the data active = inhibition above about 30%; inconclusive = no clear call, values can overlap the other calls;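 also: 0% = vehicle wells and 100% = reference inhibitor control wells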
Target sequence (P9WHJ3 whole entry, looked up): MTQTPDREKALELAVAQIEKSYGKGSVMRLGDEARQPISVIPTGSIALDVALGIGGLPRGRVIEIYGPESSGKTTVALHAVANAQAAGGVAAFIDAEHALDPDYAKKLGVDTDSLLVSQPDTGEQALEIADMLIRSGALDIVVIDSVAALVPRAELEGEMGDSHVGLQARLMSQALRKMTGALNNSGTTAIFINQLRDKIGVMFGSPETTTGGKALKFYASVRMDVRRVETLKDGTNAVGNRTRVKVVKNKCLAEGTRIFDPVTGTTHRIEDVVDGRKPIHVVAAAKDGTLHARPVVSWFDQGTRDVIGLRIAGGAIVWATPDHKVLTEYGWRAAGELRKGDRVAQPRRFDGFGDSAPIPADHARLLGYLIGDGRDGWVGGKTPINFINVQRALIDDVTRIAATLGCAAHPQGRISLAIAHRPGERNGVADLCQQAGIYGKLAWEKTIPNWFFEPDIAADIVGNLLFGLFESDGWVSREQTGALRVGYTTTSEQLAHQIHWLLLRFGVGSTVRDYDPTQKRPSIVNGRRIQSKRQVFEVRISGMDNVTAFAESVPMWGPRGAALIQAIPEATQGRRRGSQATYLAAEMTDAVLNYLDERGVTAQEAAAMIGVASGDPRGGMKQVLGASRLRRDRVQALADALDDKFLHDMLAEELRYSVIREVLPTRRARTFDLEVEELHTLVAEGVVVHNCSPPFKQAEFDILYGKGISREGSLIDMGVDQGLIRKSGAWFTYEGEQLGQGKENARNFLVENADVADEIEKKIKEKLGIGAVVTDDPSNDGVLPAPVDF
Mtb betalactam: beta-lactam sensitization of Mtb H37Rv, H37Rv; M. tuberculosis H37Rv growth with meropenem, percent inhibition; hits of this screen are not shown here; inhibition, % at 25 µM; 0.27% of 330,000 active; AID 434955, 2010;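 active = about 74% or more and at least 40 points above the plate without the antibiotic, then above 30% in a dose series; inconclusive = first-round hits that could not be retested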;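 also: growth measured after seven days incubation then overnight dye step; 0% = bacteria only wells and 100% = bacteria with antibiotic; twin plates without the antibiotic show which effects depend on it; some results filed as inactive read as strong as hits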
Mtb growth: M. tuberculosis H37Rv growth inhibitors, H37Rv strain (AID 1626). M. tuberculosis H37Rv growth inhibition; higher % means a stronger effect. 0.95% of 220,000 active. inhibition, % at 10 µM, or IC50 in µM where a hit was titrated;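 active = confirmed in a dose series; inconclusive = inhibition above 80% but not taken into the dose series; inactive = below 80% or under 30% at every dose of the series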;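 also: bacteria incubated seven days before Alamar blue readout; 0% = bacteria only wells and 100% = bacteria with antibiotic wells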
Arbovirus anti repeat: second read-out of Arbovirus anti, no call of its own (marks repeat the call); inhibition, %; measured here: 10K subset replicate screen; many hits read low in the repeat;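 first of two repeat runs on a subset; 0% = infected and 100% = uninfected wells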
* marks the source's active call; other numbers are inactive results; ? = inconclusive; / = not tested or not shown. These rows are one share of the data; rates above refer to the full screens.

SMILES	YopH inh	Arbovirus anti	RecA intein inh	Mtb betalactam	Mtb growth	others
O=C(Nc1nc2c(s1)CCCC2)c1cccnc1	-34	-2	-4.0	-2	-10%	Arbovirus anti repeat=0
Cc1c(N2C(=O)/C(=C\c3ccccc3O)SC2=S)c(=O)n(-c2ccccc2)n1C	/	/	0.0	-11	10%
O=C(Cc1ccc(Br)cc1)NCCc1ccc(F)cc1	/	/	-2.8	-4	/
CC1CN(Cc2cc(=O)n3ccsc3n2)CC(C)O1 (stereo unspecified)	-119	5	-1.9	-1	-3%
COc1cc(/C(C)=N/NC(=S)NC(C)C)cc(OC)c1OC	-18	-6	-2.3	56	1%
COCCn1c(C)cc(C(=O)COC(=O)C2CC(=O)N(CCc3ccc(OC)c(OC)c3)C2)c1C (stereo unspecified)	/	/	-3.7	1	/
CCN(Cc1ccccc1)C(=O)c1cccc(S(=O)(=O)N2CCN(c3ccc(F)cc3)CC2)c1	/	/	4.3	-9	/
COc1cc(-c2nnc3sc(Cc4ccc(Cl)cc4)nn23)cc(OC)c1OC	/	/	-0.9	4	/
CCn1c(SCC(=O)Nc2ccc(N3CCOCC3)cc2)nnc1-c1ccc(OC)cc1	-18	5	-7.3	-17	-4%
NCCOc1ccc(C23CC4CC(CC(C4)C2)C3)cc1	/	-33	6.2	98	73%
CCC(=O)NCc1ccc2[nH]c(C)cc2c1	/	17	9.7	-5	-9%
COc1cc(C(=O)N2CCN(Cc3ccccn3)CC2)cc(OC)c1OC	/	/	-1.8	0	/
O=S(=O)(c1ccccc1)N1CCN(S(=O)(=O)c2ccccc2)C1	-3	8	2.2	-9	2%	Arbovirus anti repeat=7
COc1cccc(N2CCN(C(=O)/C=C/c3ccco3)CC2)c1	/	0	1.3	11	4%
O=C(Nc1ccccc1)N(CCN1CCOCC1)Cc1ccccc1F	-11	-5	-1.1	-11	-9%
CCCC[C@@H]1CNC(=O)C(=O)N1CCc1cccc2ccccc12	/	/	-2.8	5	-7%
COc1ccccc1C1=NOC(COC(=O)c2ccc(Br)cc2)C1 (stereo unspecified)	-15	2	1.5	81	30%
Cc1ccc(CNc2ccc3c(c2)OCO3)c(C)c1	-11	-14	7.9	94	24%
COC(=O)c1ccc(COc2cc([N+](=O)[O-])cc3cccnc23)cc1	/	/	1.3	3	-7%
COc1cccc(NC(=O)CN(C)CC(=O)Nc2ccc(Br)cc2)c1	/	-4	6.5	43	78%

A run of entries from further up:
SMILES	YopH inh	Arbovirus anti	RecA intein inh	Mtb betalactam	Mtb growth	others
Cc1ccc(CNc2ccc3c(c2)OCO3)c(C)c1	-11	-14	7.9	94	24%
COC(=O)c1ccc(COc2cc([N+](=O)[O-])cc3cccnc23)cc1	/	/	1.3	3	-7%
COc1cccc(NC(=O)CN(C)CC(=O)Nc2ccc(Br)cc2)c1	/	-4	6.5	43	78%

(next part)
SMILES	YopH inh	Arbovirus anti	RecA intein inh	Mtb betalactam	Mtb growth	others
CCCOP(=O)(c1ccc(N(C)C)cc1)C(O)c1cc(OC)ccc1OC (stereo unspecified)	/	/	-0.9	0	/
COc1cccc(/C=N/NC(=O)c2nnn(-c3nonc3N)c2C(C)C)c1OCc1ccc(F)cc1	/	/	2.8	0	/
O=[N+]([O-])c1ccc(N2CCSCC2)cc1	/	-4	2.6	1	-1%
O=C(O)CCCCOn1ccnc1	/	10	-1.8	-4	1%
CC(C)CC(=O)NCCCCc1ccccc1	-8	-2	-0.6	-3	3%
O=C(c1ccccc1S(=O)(=O)NCC(O)COc1ccc([N+](=O)[O-])cc1)N1CCCCC1 (stereo unspecified)	-27	2	-2.4	1	5%
CCS(=O)(=O)N1CCCC(C(=O)NCC2CCCO2)C1 (stereo unspecified)	-31	5	1.1	-2	-2%
CCCn1nnnc1NCc1ccc(OC)cc1OC	/	/	2.5	-9	/
O=C(Nc1ccccc1N1CCCC1)C1CCN(S(=O)(=O)c2ccc(F)cc2)CC1	/	/	-2.7	-2	/
O=S(=O)(c1ccc(Cl)nc1)N1CCc2ccccc21	/	/	-0.6	8	9%
Cc1ccc(N(CC(=O)NCc2ccc(F)cc2)C(=O)c2ccco2)cc1C	/	/	-1.2	-2	/
COC(=O)Cn1c(=O)c(=O)n(CC(=O)OC)c2ccccc21	/	1	-3.0	-12	-12%
Cc1cccc(-c2nc3cc(NC(=O)C4CCCO4)ccc3o2)c1 (stereo unspecified)	-34	-7	1.1	-7	12%
O=C(CCNc1n[nH]c(=O)[nH]c1=O)N/N=C/c1ccc(C(F)(F)F)cc1	/	5	0.1	-3	-1%
Cc1cc(C(=O)COC(=O)c2ccc(Br)o2)c(C)n1Cc1ccco1	/	7	-0.2	-2	43%
COc1cc(NC(=O)CCc2c(C)nn(-c3ccc(N4CCOCC4)nn3)c2C)cc(OC)c1OC	/	/	-0.5	-2	/
Cn1nc(C(=O)Nc2ccc(S(=O)(=O)N3CCCC3)cc2)ccc1=O	-53	1	2.8	0	-2%
Cc1cc(C)nc(N=Nc2c(O)n(Cc3ccc(Cl)cc3)c3ccccc23)n1	-5	-17	1.3	5	16%
CCc1ccc(NC(=O)C(=O)NNC(=O)c2cccc(OC)c2)cc1	/	/	-2.3	97	/
C/C(=N/Nc1nc(-c2ccccc2F)nc2ccccc12)c1ccccc1O	/	/	2.1	92	39%
Cc1cc(C(C#N)c2ccccc2)n2ncnc2n1 (stereo unspecified)	3	11	/	-17	-6%
CCOc1ccc(Nc2c3ccccc3nc3ccccc23)cc1	/	/	19	98	?
O=S(=O)(NCCc1ccncc1)c1cc(Br)ccc1F	-8	8	0.2	-2	-3%
COc1cccc(NC(=O)CN(C)C(=O)CSC(=S)N2CCCC2)c1	/	/	0.0	-6	/
CCN(CC)S(=O)(=O)c1ccc(-c2nnc(SCC(=O)N3c4ccccc4CC3C)n2CC)cc1 (stereo unspecified)	-12	1	0.8	1	5%
Cc1ccc(NC2=C/C(=N/S(=O)(=O)c3cccs3)c3ccccc3C2=O)cc1C	17	-12	8.5	3	0%
Cc1ccnc(NC(=O)c2ccc3c(c2)C(=O)N(CC2CCCO2)C3=O)c1 (stereo unspecified)	/	-2	1.8	1	2%
Cc1cc(C)c2cc(CN(CCO)C(=O)Nc3ccc(F)cc3)c(=O)[nH]c2c1	-20	3	0.3	-7	2%
CN1CCN(/N=C/c2nc(-c3ccccc3Cl)n3ccccc23)CC1	-25	3	-1.8	9	6%
COC(=O)c1cc[n+](CC(=O)c2ccccc2)cc1	-8	-1	0.6	-3	-14%
O=C(COC(=O)C1(c2cccc(F)c2)CCCC1)NCc1cccs1	/	0	3.8	6	4%
COc1ccc(/C=N/NC(=O)Cc2n[nH]c(=O)[nH]c2=O)cc1	/	/	1.1	-10	-6%
CCOC(=O)c1c(NC(=O)CSc2nnc(-c3ccc(OC)cc3)o2)sc2c1CCC2	29	/	4.8	6	0%
CC(C)NC(=O)CSc1nnc(-c2ccc(F)cc2)c2ccccc12	/	10	/	-1	-2%
O=C1NC(c2cc3ccccc3nc2Cl)Nc2ccccc21 (stereo unspecified)	-15	10	-3.6	-1	9%
C=CCn1c(COc2ccccc2F)nnc1SCC(=O)NC(=O)NCc1ccco1	-29	5	0.3	-7	-5%
CC(=O)C(C)n1cnc2scc(-c3ccc(C)cc3)c2c1=O (stereo unspecified)	/	/	1.5	2	/
CCOC(=O)CSC1=N/C(=C\c2ccc(OC)c(OC)c2)C(=O)N1C	2	2	-22	3	0%
Cc1cc(CN2C(=O)c3ccccc3C2=O)cc(N2CCOCC2)c1	-20	8	/	1	-4%	Arbovirus anti repeat=1
C#CCOCCOCCOCCNc1nc(N2CCN(C(=O)C([C@@H](C)CC)n3cc(C(N)Cc4ccc(O)cc4)nn3)CC2)nc(N2CCN(C(=O)[C@H](CCC(=O)O)n3cc(C(N)CC(C)C)nn3)CC2)n1 (stereo partly specified)	/	3	0.4	0	-2%
Cc1cc(C)c(OCC(=O)OCC(=O)NC2CCCCCCC2)c(C)c1	/	/	4.2	-2	/
O=C(Oc1ccc2ccc(=O)oc2c1)c1ccccc1	/	/	-57	42	/
CCCCCN(C(=O)CCC(=O)OCCOc1ccccc1)c1c(N)n(CCCC)c(=O)[nH]c1=O	/	/	1.1	-4	/
CCc1ccc2[nH]c(O)c(N=NC3=NC(=O)CS3)c2c1	/	/	-0.1	31	1%
COCCn1nnnc1C(c1ccccc1)N1CCN(Cc2ccc3c(c2)OCO3)CC1 (stereo unspecified)	-21	-4	-16	5	-6%
Cc1ccc(C(=O)OC(C)C(=O)Nc2ccc(S(N)(=O)=O)cc2)cc1S(=O)(=O)N1CCOCC1 (stereo unspecified)	/	/	-0.5	-10	/
O=C(N/N=C/c1ccc(O)c(Br)c1)c1cc2c(ccc3ccccc32)o1	/	/	-3.8	1	/
O=C(CSc1ncn[nH]1)NC1CC2CCC1C2 (stereo unspecified)	0	0	0.6	-13	-7%
CC[N+](CC)(CC)C/C=C/CN1CCCCC1	2	6	3.7	-5	3%
CC1(C)NC(C)(C)/C(=C\c2cccs2)C(=O)C1=O	/	0	-0.2	7	6%
CC1CC(NC2=NCCS2)CC(C)(C)C1 (stereo unspecified)	/	/	1.1	3	-3%
Cc1cc(Cl)c2oc(C(=O)NCCN3CCOC3=O)c(C)c2c1	/	/	-1.7	1	/
CC(O)c1nc2ccccc2n1CC(=O)N1CCN(c2ccccc2)CC1 (stereo unspecified)	/	3	2.8	-2	-5%
COC(=O)c1ccccc1NCC(=O)c1ccc(OC)cc1	/	/	-4.7	13	/
Cc1ccc(C(=O)N2C3=C(CCCC3)C(=O)NC23CCCCC3)cc1	/	2	-1.6	-6	-7%
Cc1nn(Cc2ccccc2)c(C)c1C(=O)NCCN1C(=O)S/C(=C\c2ccccc2)C1=O	-16	16	2.1	1	-10%
COc1ccccc1Oc1ccc(S(=O)(=O)N2CCN(C)CC2)cc1	/	19	0.8	-6	3%
CCn1c(N2CCN(C(=O)c3ccco3)CC2)nc2ccccc21	/	/	-0.6	-1	/
C=CCNC(=O)C1CCN(S(=O)(=O)CC)CC1	-40	5	1.1	-6	-10%
Cc1ccc(S(=O)(=O)Nc2nc(C)cc(NN)n2)cc1	/	/	-5.3	-5	-12%

(cont.)
SMILES	YopH inh	Arbovirus anti	RecA intein inh	Mtb betalactam	Mtb growth	others
COc1ccc(C(=O)Nc2ccc(S(=O)(=O)N3CCOCC3)cc2)cc1OC	-38	6	-1.0	-14	4%
CCOC(=O)c1c(NC(=O)CSc2nnc(-c3ccncc3)n2Cc2ccco2)sc(C)c1C	3	-11	-0.1	7	0%
O=C(CC1C(=O)NCCN1Cc1cccc(Oc2ccccc2)c1)NCCc1cnccn1 (stereo unspecified)	/	3	2.8	0	-9%
CC1(C)Oc2ccc3ccc(=O)oc3c2/C(=C/N)C1=O	13	4	0.3	5	-2%	Arbovirus anti repeat=4
Nc1[nH]nc2c1NN(c1ccc(Cl)cc1Cl)N2	-23	24	4.9	90	47%
Cc1nn(Cc2ccccc2Cl)c(C)c1NC(=O)CSc1n[nH]c(C)c1[N+](=O)[O-]	-12	-9	0.7	14	-2%
N#Cc1cc2sc3nnc(-c4ccncc4)n3c2cc1C#N	-51	4	15	-7	-8%
NNC(=O)CNC(c1ccccc1)c1cc(Br)ccc1NC(=O)c1cccc(Cl)c1 (stereo unspecified)	-28	-18	4.1	-9	0%
COC(=O)[C@H](Cc1ccccc1)NC(=O)NCc1ccc(S(N)(=O)=O)cc1	-14	6	6.8	43	3%
COCCn1c(SCC(=O)Nc2ccc(C(C)=O)cc2)nc2c([nH]c3ccccc32)c1=O	/	/	-0.8	-6	/
CN(C)CCN=Cc1c(O)n(Cc2ccco2)c(=O)[nH]c1=O	-17	14	2.0	3	2%
O=[N+]([O-])c1ccc2nc(-c3ccc(Cl)cc3)n(OCc3ccccc3)c2c1	-36	3	7.3	5	/

Looked up one by one from the list above:
SMILES	YopH inh	Arbovirus anti	RecA intein inh	Mtb betalactam	Mtb growth	others
COC(=O)[C@H](Cc1ccccc1)NC(=O)NCc1ccc(S(N)(=O)=O)cc1	-14	6	6.8	43	3%
Cc1nn(Cc2ccccc2Cl)c(C)c1NC(=O)CSc1n[nH]c(C)c1[N+](=O)[O-]	-12	-9	0.7	14	-2%
NNC(=O)CNC(c1ccccc1)c1cc(Br)ccc1NC(=O)c1cccc(Cl)c1 (stereo unspecified)	-28	-18	4.1	-9	0%
CCOC(=O)c1c(NC(=O)CSc2nnc(-c3ccncc3)n2Cc2ccco2)sc(C)c1C	3	-11	-0.1	7	0%
O=[N+]([O-])c1ccc2nc(-c3ccc(Cl)cc3)n(OCc3ccccc3)c2c1	-36	3	7.3	5	/
COc1ccc(C(=O)Nc2ccc(S(=O)(=O)N3CCOCC3)cc2)cc1OC	-38	6	-1.0	-14	4%
